Compound activity (PubChem)
Vaccinia mCherry: vaccinia inhibition (mCherry reporter) | AID 720579 | Potency, µM (series often up to 36.5 µM), for the others: top-dose activity change, negative = inhibition, usual class: inhibitors | 310,000 tested, 0.63% active | Vaccinia virus mCherry reporter infection, fluorescence; about a quarter of the inactives have no number; active = well fitted inhibition curve with a large enough effect; inconclusive = small, poorly fitted or top-dose-only effect; inactive = no such curve, though single readings can be large or run the other way; tested in A549 cells; further: nearly all actives have a fitted effect of over 35% in size; inactives centre near -10
Vaccinia Venus: vaccinia inhibition (Venus reporter) | Vaccinia virus Venus reporter expression, fluorescence | Potency, µM (top dose mostly 36.5 µM), without a hit: at the highest dose activity change, negative = inhibition, hits mostly inhibitors | 330,000 tested, 0.46% active | AID 720580; active means well fitted inhibition curve with a large enough effect; inconclusive means small, poorly fitted or top-dose-only effect; inactive means no such curve, though single readings can be large or run the other way; tested in A549 cells; further: nearly all actives have a fitted effect of over 30% in size; inactives centre near -10
* = called active by the depositor; i = inactive; ? = inconclusive; · = no result given; & = joins results of further samples; [ ] = remark or other dose. On the % scale 0 is the no-effect control and ±100 the full control effect; potency means the concentration at half of the fitted maximal effect.

canonical_smiles,Vaccinia mCherry,Vaccinia Venus
Cc1cccc(NC(=O)CSc2nc3c(oc4ccccc43)c(=O)n2-c2ccc(F)cc2)c1,-7%,-2%
Cc1cc(-c2cc(C(=O)NCc3ccccc3)on2)nc(S(C)(=O)=O)n1,?,-16%
Oc1cc(Cc2ccccc2)cnc1CN1CCOCC1,·,-6%
NC(=O)C1CCN(c2ccc3c(c2)S(=O)(=O)c2ccccc2C3=O)CC1,-3%,-26%
CCCOC(=O)c1ccc(NC(=O)c2ccc(Br)o2)cc1,-13%,-11%
COCCNC(=O)C1CCCN(C(=O)c2oc3ccccc3c2C)CC1 (centres undefined),i,-2%
N#Cc1ccc(C(=O)Nc2cc(C3CC3)nn2-c2ccccc2)cc1,i,1%
CCOC(=O)CC1C(=O)NCCN1C(=O)c1ccc(C)cc1 (centres undefined),i,-4%
O=C(NCc1ccc(F)cc1)c1cc(C(=O)C2CC2)c[nH]1,-12%,1%
Cn1c(=O)c2c(nc(/C=C/c3cccc(Cl)c3)n2C)n(C)c1=O,-16%,-9%&-2%
CC(C)[C@H](NC(=O)c1ccc(Cl)c([N+](=O)[O-])c1)C(=O)NCc1ccc(F)cc1,i,-2%
O=c1[nH]cnc2c1ncn2C1OC(CO)C(O)C1O (centres undefined),?,-22%&-12%
O=C(CSc1ccc(Br)cc1)NCC(c1ccco1)N1CCCCC1 (centres undefined),i,-16%
Cc1ccccc1-c1csc(C(O)c2ccccc2)n1 (centres undefined),9%,-19%
COC(=O)Nc1ccc(S(=O)(=O)Nc2cc(OC)nc(OC)n2)cc1,-8%,-6%
S=C(NCCCN1CCOCC1)N1CCN(c2cccc(Cl)c2)CC1,-14%,-14%
CSc1nn(Cc2ccc(F)cc2)c(N)c1S(=O)(=O)c1ccc(Cl)cc1,-26%,-14%
O=C(NCC1COCCO1)C1CCN(S(=O)(=O)c2ccccc2)CC1 (centres undefined),i,-2%
O=C(COC(=O)c1ccc(Cl)c(S(=O)(=O)N2CCCCC2)c1)NCCc1ccccc1,-8%,-13%
COc1ccccc1OCc1cc(C(=O)N(C)CCC2CCOCC2)no1,-12%,-16%
CCOC(=O)c1ccc(NC(=O)NS(=O)(=O)c2ccc(C)cc2)cc1,·,-25%
COC(=O)c1ccc(CSc2nc3ccccc3c(=O)n2C)o1,i,-15%
CCC1Oc2ccccc2N(CC(=O)NCCCN2CCN(c3ccc(OC)cc3)CC2)C1=O (centres undefined),14%[7.34 µM],0%[7.34 µM]
Cc1nc2cc(NC(=O)NCc3ccc4c(c3)OCO4)ccc2o1,-5%,-14%
CCCCc1nn2c(=O)cc(COC(=O)Cc3ccccc3)nc2s1,-3%,-3%
Cc1ccc(C)c(N=Cc2cc3c(cc2[N+](=O)[O-])OCO3)c1,4%,-2%
Cc1cc2c(cc(C(=O)NCc3cccnc3)n2Cc2ccc(Cl)cc2)o1,-17%,-4%
CCOCCCNC(=O)CN(Cc1ccc(Cl)cc1)S(C)(=O)=O,·,-3%
O=C(/C=C/c1ccccc1)Nc1nc(-c2ccncc2)cs1,-10%,-19%
CC(C)c1nc2sc3c(SCC(=O)NCc4ccco4)ncnc3c2c2c1CCC2,·,14µM*

The results go on:
canonical_smiles,Vaccinia mCherry,Vaccinia Venus
CC(C)Cc1ccc(S(=O)(=O)NCC2CCCO2)cc1 (centres undefined),i,-14%
CCSc1ncc(Cl)c(C(=O)N2CCN(c3ccccc3OC)CC2)n1,-20%,-18%
CCOc1ccc(NC(=O)C(CC(=O)O)Cc2ccc(Br)cc2)cc1 (centres undefined),-12%,-7%
Cc1ccc2nc(-c3ccc(NC(=O)c4ccc(S(C)(=O)=O)cc4)cc3)sc2c1,-9%[7.34 µM],-11%[7.34 µM]
O=[N+]([O-])c1ccc(F)cc1F,-11%,-11%
Cc1ccc2oc(C(=O)N3CCC(N4CCSCC4)CC3)c(C)c2c1,-15%,-7%
O=S(=O)(NCCSc1ccccc1)c1ccc2c(c1)OCCO2,-12%,-9%
CC(C)C(NS(C)(=O)=O)c1nnc2n1CCN(Cc1ccc3cccnc3c1)CC2 (centres undefined),-5%,-1%
CN(C(=O)Cn1nnc(-c2cccc(C(F)(F)F)c2)n1)C1CCCCC1,-18%[1.46 µM],-7%
CCOC(=O)c1ccc(COC(=O)c2cc(=O)[nH]c3ccccc23)o1,i,0%
O=S(=O)(c1ccc(Cl)c(NC(=S)Nc2cccc(O)c2)c1)N1CCOCC1,i,-13%
COc1ccccc1-c1ccnc(-n2ncc(C(=O)NC3CCCN(Cc4ccccc4)C3)c2C)n1 (centres undefined),-16%,3%
O=C(CN1CCN(S(=O)(=O)c2ccc(Cl)cc2)CC1)NCc1cccs1,-10%,-19%
COc1ccc(C2SCCN2C(=S)Nc2ccc(Cl)cc2)cc1 (centres undefined),-13%,-17%
O=C(O)Cc1cc(I)c(Oc2cc(I)c(O)c(I)c2)c(I)c1,1%,17%
CC(C)CCNC(=O)CN(Cc1ccccc1Cl)C(=O)CCC(=O)Nc1ccccn1,-5%,-9%
CCN(CC)CCNC(=O)c1cc(-c2ccc(Br)s2)nc2ccccc12,-14%[7.34 µM],-7%[7.34 µM]
CC12C(C(=O)O)C1(c1ccccc1)C2C(=O)O (centres undefined),i,-10%
CCCCNC(=O)CCn1nc(-c2ccccc2)ccc1=O,2%,-5%
Cc1csc(NC(=O)c2cccc(S(=O)(=O)N3CCN(C)CC3)c2)n1,7%,3%
CC(CNC(=O)c1ccc(C(C)(C)C)cc1)CN(C)C (centres undefined),-18%,-8%
O=C(Nc1nc2ccc(F)cc2s1)c1ccc(N2CCCC2=O)cc1,-16%,-8%
COC(=O)CC1C(=O)NC2CCCCC2N1C(=O)CCl (centres undefined),?,?
O=C(CNC(=O)c1sc2ccccc2c1Cl)NCc1ccccc1,-27%,-19%
Cc1ccc(S(=O)(=O)N2CCC(N3CCN(C)CC3)CC2)cc1Cl,-23%,-10%
N#CC1(Nc2ccc([N+](=O)[O-])cc2)CCCC1,0%,-15%
O=C(CN(Cc1ccco1)C(=O)c1ccc(Cl)cc1)Nc1c(Cl)cc(Cl)cc1Cl,-16%,-9%
CCCS(=O)(=O)N1CCC(C(=O)NC2CCCC(C)C2C)CC1 (centres undefined),·,0%
Cc1cc(Cl)ccc1OCc1nc(-c2ccncc2)no1,-9%,-2%
NS(=O)(=O)c1cccc(NC(=O)CN2CCCc3ccccc32)c1,-5%,-9%

Overlap with the part before: four entries; new compounds follow.
canonical_smiles,Vaccinia mCherry,Vaccinia Venus
O=C(CN(Cc1ccco1)C(=O)c1ccc(Cl)cc1)Nc1c(Cl)cc(Cl)cc1Cl,-16%,-9%
CCCS(=O)(=O)N1CCC(C(=O)NC2CCCC(C)C2C)CC1 (centres undefined),·,0%
Cc1cc(Cl)ccc1OCc1nc(-c2ccncc2)no1,-9%,-2%
NS(=O)(=O)c1cccc(NC(=O)CN2CCCc3ccccc32)c1,-5%,-9%
COC(=O)c1ccc(NC(=O)NCCn2nnc3cc(S(=O)(=O)N(C)C)ccc32)cc1,-1%,-5%
Cc1cccc(-c2nnc(N)s2)c1,·,?
CC(=O)N1CCc2c(sc(NC(=O)c3ccc(S(=O)(=O)N(C)C)cc3)c2C#N)C1,-7%,-2%
CCOc1ccc(-c2nc(CSCC(=O)N3CCN(c4cccc(C(F)(F)F)c4)CC3)c(C)o2)cc1,?,?
CCN(CC)S(=O)(=O)c1ccc(-c2nnco2)cc1,-17%,-5%
Cc1cc(C)n2ncc(-c3cccc(Br)c3)c2n1,-7%,-5%
C#CCOC(=O)Nc1ccc(OCC(F)(F)F)nc1,-20%,-22%
CNC(=O)CN(C)S(=O)(=O)c1ccc(OC)c(Cl)c1,·,-26%
CCc1ccc2occ(CC(=O)Nc3ccccc3C(F)(F)F)c2c1,-11%,-5%
C=CCn1c(COc2ccccc2)nnc1SCC(=O)NCC(=O)OCC,·,0%
N#CC1(c2ccccc2)CCCN1C(=O)c1ccc(Br)o1 (centres undefined),i,0%
Cc1cc2oc(=O)sc2cc1NS(=O)(=O)c1ccccc1,?,-9%
COc1ccc(Cl)cc1C(=O)NC(=S)Nc1cc(-c2nc3ccccc3[nH]2)ccc1C,·,-23%
CC(=O)c1cccc(N(CC(=O)NC2CCCCC2)C(=O)CNC(=O)c2cccs2)c1,-20%,-3%
COCCNc1nc(CSc2ccccc2)nc2sc(C)c(C)c12,i,-23%
O=C(CN1CCCCC1)Nc1c2c(nc3ccccc13)N(c1ccccc1)CC2,i,-15%
COC(=O)c1ccc(N2CCN(C(C)=O)CC2)c(NC(=O)COc2ccccc2C)c1,i,-27%
O=C(Nc1cc(S(=O)(=O)N2CCOCC2)ccc1N1CCOCC1)c1cn2ccccc2n1,-17%,-17%
COc1ccc(C2COc3c(ccc(O)c3OC)C2)c(OC)c1O (centres undefined),-19%,-13%
CCOc1ccc(-n2cnc3scc(-c4ccc(OC)c(OC)c4)c3c2=O)cc1,?,-27%
COc1cc(C(=O)NCc2ccccc2)ccc1OC(F)F,-19%,-14%
Cc1cc(C)c(S(=O)(=O)n2ccc(-c3ccc(OCCN(C)c4ccccn4)cc3)n2)c(C)c1,-22%,-20%
Cc1ccc(S(=O)(=O)N2CCC(C(=O)OCC(=O)N3CCCC(C)C3)CC2)cc1C (centres undefined),-11%,-11%
CC1(C)CC(=O)C=C(c2n[nH]nc2C2=CCCCC2)C1,i,-24%
COc1ccccc1C(=O)N1CCN(C(=O)[C@H]2O[C@@H](n3cnc4c(N)ncnc43)[C@H](O)[C@@H]2O)CC1,2%,9%
CCOc1ccc(CC(=O)Nc2ccc(S(=O)(=O)Nc3cc(C)on3)cc2)cc1OCC,-14%,-9%
O=C(NCCN1C(=O)S/C(=C\c2ccc(OC(F)F)cc2)C1=O)c1cnccn1,-24%,-29%
Cc1ccc(S(=O)(=O)N2CCN(Cc3nc4ccc(C)cc4o3)CC2)cc1,-8%,-2%
Cc1ccc(CNC(=O)CSc2ccc(-c3ccco3)nn2)cc1,-5%,-10%
O=C1C2ON(c3ccc(Cl)cc3)C(c3ccco3)C2C(=O)N1c1ccccc1 (centres undefined),-12%,-6%

(continued)
canonical_smiles,Vaccinia mCherry,Vaccinia Venus
Cc1nc(-c2ccc3c(c2)CCC(=O)N3)cs1,i,-8%
O=c1c2ccccc2nc(CNc2ccccc2)n1-c1ccccc1,-16%,-13%
Cc1ccc(C)c(Cn2c(=O)cc(C)c3c(C)nn(C)c32)c1,-11%,-2%
Cc1cccc2sc(N(Cc3cccnc3)C(=O)c3ccco3)nc12,-1%,-8%
Cc1cccc(C(C(C(=O)c2ccccc2)N2CCOCC2)N2CCOCC2)c1 (centres undefined),?,4%
Cc1ccc(-c2cn(-c3cccc(Cl)c3)c(S(=O)(=O)CC(=O)Nc3cccc(C)c3)n2)cc1,-28%,-27%
C#CC[N+](C)(C)CC#Cc1ccc(Cl)cc1,?,?
O=C(CCc1ccccc1)Nc1ccccc1[N+](=O)[O-],-20%,-14%
COc1ccc(OCc2cc(C(=O)NCCCc3ccccc3)no2)c(Cl)c1,?,?
COc1ccc(CN(C(=O)c2ccc(-c3ccccc3)[nH]2)C(C(=O)NCC2CCCO2)c2ccc(C)o2)cc1 (centres undefined),?,?
O=C(Nc1ccc(Cl)c(Cl)c1)c1ccco1,-5%,-22%
CCOc1ccccc1NC(=O)C1CCCN(S(=O)(=O)c2ccc3c(c2)C(C)(C)C(=O)N3C)C1 (centres undefined),-18%,-16%
CC(=O)n1nc(-c2ccccc2)nc1NCc1ccc(F)cc1,?,-29%
O=C(C1CCCO1)N1CCN(C(=S)Nc2ccc(Cl)cc2)CC1 (centres undefined),i,-17%
Cc1nc2nc(SCc3ccc(F)cc3Cl)nn2c(C)c1Cc1ccccc1,-18%,-14%
COc1ccc(C2/C(=C(/O)c3cnn(-c4ccccc4)c3C)C(=O)C(=O)N2CCN(C)C)cc1OC (centres undefined),i,5%
CCCC(=O)Nc1c(-c2ccccc2)[nH][nH]c1=O,i,-9%
O=C(Nc1ccc(S(=O)(=O)N2CCOCC2)cc1)c1ccc(=O)[nH]c1,i[7.34 µM],?
CCOP(=O)(Nc1ccc2oc(=O)c3ccccc3c2c1)OCC,22%,-13%
Cc1cc(CSc2ccccc2)ccc1NC(=O)COc1ccccc1,0%,-30%
COc1ccc2c(c1)C(C)=CC(C)(C)N2C(=O)CN1C(=O)CCC1=O,·,-5%
O=C(Nc1cccc(C(F)(F)F)c1)Nc1cccs1,-26%,?
CC(=O)Nc1nonc1-c1nnc(SCC(=O)Nc2cccc(F)c2)n1-c1ccccc1,-4%,-12%
COc1ccc(-c2nnc(Nc3ccc(S(=O)(=O)Nc4nccs4)cc3)c3ccccc23)cc1,-5%,-3%
COc1ccc(OCC(=O)OCC(=O)Nc2ccc(S(=O)(=O)N3CCCCC3)cc2)cc1,·,-4%
CC1CC(C)CN(C(=O)Cn2c(SCC(=O)N3CCc4ccccc4C3)nc3ccccc32)C1 (centres undefined),-9%,-7%
CN1CCC[C@@H]1CCO[C@](C)(c1ccccc1)c1ccc(Cl)cc1,-23%,-22%
